# High-throughput results: PubChem, National Center for Advancing Translational Sciences (NCATS)
# Rab9 promoter act = Rab9 promoter activation; Huh7 Rab9 promoter-luciferase reporter, luminescence, 24 h; Potency, µM (top dose mostly 9.22 µM), without a hit: at the highest dose activation, negative = inhibition, hits mostly activators; hit rate 2.8% among 320,000; further: potency means the concentration at half of the fitted maximal effect; % of control where 0% means no effect; nearly all actives have a fitted effect of over 60% in size
#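 Quantitative HTS format; Huh7 Rab9-luciferase reporter cells (1500/well) receive compound 2 h post-plating, incubate 24 h at 37 °C, then get luciferase reagent for 10 min before luminescence reading.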
# ELG1 DNA repair = ELG1-dependent DNA repair inhibition; HEK293T ELG1-luciferase reporter, luminescence, 16 h; DNA damage induced by 5-fluorouridine; Potency, µM (top dose mostly 46.1 µM), for inactives: at the top dose activity change, negative = inhibition, hits mostly inhibitors; AID 504467; hit rate 2.3% among 330,000; further: potency means the concentration at half of the fitted maximal effect; on the % scale 0 is the no-effect control and ±100 the full control effect; nearly all actives have a fitted effect of over 55% in size
#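 Reporter activity after DNA damage by 5-fluorouridine is monitored. Compound-treated cells incubate 16 hr at 37 °C, then ONE-Glo is added for 30 min before luminescence reading.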
# RORgamma inh = ROR gamma (mouse) transcription inhibition | P51450 | Drosophila S2 Gal4-RORgamma UAS-luciferase reporter, 20 h | Potency, µM (titrated, usually from 53.6 µM), without a hit: at the top dose activity change, negative = inhibition, actives largely listed as inhibitors | hit rate 5.4% among 310,000 | AID 2551; further: potency means the concentration at half of the fitted maximal effect; on the % scale 0 is the no-effect control and ±100 the full control effect; nearly all actives have a fitted effect of over 60% in size
#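 Stable Schneider cell line, Gal4 DNA-binding domain fused to ROR gamma, UAS-luciferase. Cmpd 1 hr RT → CuSO4 700 uM final → 20 hr RT → luciferase reagent 10 min → luminescence.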
# VP16 counter = inhibits Gal4-VP16 luciferase reporter, ROR gamma counter-screen; Drosophila S2 Gal4-VP16 UAS-luciferase, luminescence, 20 h; Potency, µM (titrated, usually from 53.6 µM), without a hit: at the highest dose activity, negative = inhibition, most hits filed as inhibitors; hit rate 3.5% among 310,000; AID 2546;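 further: Gal4-VP16 expression switched on by copper sulfate through the metallothionein promoter; potency means the concentration at half of the fitted maximal effect; on the % scale 0 is the no-effect control and ±100 the full control effect; nearly all actives have a fitted effect of over 50% in size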
# Menin-MLL TR inh = inhibitors of human menin-MLL interaction, mutant MLL peptide; O00255; Potency, µM (titrated, usually from 61.6 µM), for inactives: at the top dose FP activity change, negative = inhibition, most hits filed as inhibitors; AID 1768; hit rate 0.23% among 270,000; Menin + Texas Red MLL mutant peptide, fluorescence polarization; active means well fitted inhibition curve with a large enough effect in the polarisation, with a control signal flat, not every such curve was filed as active; inconclusive means small, poorly fitted or top-dose-only effect, or effect the other way, or a change in a side signal; inactive means no such curve, though single readings can be large or run the other way; the % refers to the polarisation; further: potency means the concentration at half of the fitted maximal effect; % of control where 0% means no effect; many of its hits are not listed in these tables
# Target sequence (O00255 whole entry, looked up): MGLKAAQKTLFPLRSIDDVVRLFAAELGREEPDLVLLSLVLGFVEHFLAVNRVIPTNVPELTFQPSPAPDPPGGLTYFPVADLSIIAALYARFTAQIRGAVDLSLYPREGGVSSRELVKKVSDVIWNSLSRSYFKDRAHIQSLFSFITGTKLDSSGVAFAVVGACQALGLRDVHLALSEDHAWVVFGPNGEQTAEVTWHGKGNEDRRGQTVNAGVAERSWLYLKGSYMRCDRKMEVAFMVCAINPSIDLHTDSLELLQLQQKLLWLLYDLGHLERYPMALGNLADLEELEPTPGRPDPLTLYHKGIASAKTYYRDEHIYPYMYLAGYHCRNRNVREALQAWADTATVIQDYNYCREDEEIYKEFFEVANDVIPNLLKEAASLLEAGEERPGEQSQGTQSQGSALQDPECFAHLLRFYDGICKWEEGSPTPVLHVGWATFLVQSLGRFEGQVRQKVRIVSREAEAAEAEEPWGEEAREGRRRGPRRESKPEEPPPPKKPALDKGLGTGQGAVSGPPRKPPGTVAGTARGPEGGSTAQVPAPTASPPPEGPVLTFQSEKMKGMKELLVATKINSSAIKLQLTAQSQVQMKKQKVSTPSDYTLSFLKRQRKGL
# NPC1 prom act = activators of NPC1 promoter; Huh7 NPC1 promoter luciferase reporter, 24 h; Potency, µM (series often up to 9.22 µM), for inactives: at the highest dose activation, actives largely listed as activators; hit rate 2.4% among 320,000; AID 485313;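 further: potency means the concentration at half of the fitted maximal effect; % of control where 0% means no effect; nearly all actives have a fitted effect of over 60% in size; reporter is driven by a mutant NPC1 promoter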
#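 Luminescence read-out of NPC1 promoter-driven luciferase in stably transfected Huh7 cells; compounds delivered in DMSO and left 24 h at 37C, 5% CO2, qHTS titration format.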
# KCNH2 3.1 block = inhibitors of human KCNH2 3.1 potassium channel isoform; hit rate 0.95% among 340,000; U2OS KCNH2 3.1, thallium flux FluxOr; active compounds read low; activity change, % (tested at about 1.8 µM); AID 720553;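 active means maximum activity change below -70%; inconclusive means maximum activity change from -70% to -50%; inactive means maximum activity change above -50%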;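 further: thallium influx rate constant from kinetic fluorescence after stimulation buffer; on the % scale 0 is the no-effect control and ±100 the full control effect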
#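 Thallium flux read-out: FluxOr dye with Red40 quencher in HBSS/HEPES, 45 min at RT. Rate constants from kinetic reads were normalized to positive and negative DMSO controls. Cells: U2OS virally expressing the 3.1 isoform.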
# FLuc counter = firefly luciferase modulation, counter-screen for miR-21 project; P08659; purified FLuc, Km substrates, luminescence inhibition; Potency, µM (top dose mostly 57.5 µM), for the others: at the top dose activity change, negative = inhibition, actives largely listed as inhibitors; hit rate 6.9% among 360,000; AID 588342;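 further: potency means the concentration at half of the fitted maximal effect; plate controls were vehicle for no effect and reference inhibitor for full effect; nearly all actives have a fitted effect of over 55% in size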
#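 Purified P. pyralis luciferase (10nM final) with 10uM D-luciferin and 10uM ATP (Km levels) in 50mM Tris acetate pH 7.5, 10mM Mg acetate, 0.01% Tween-20, 0.05% BSA; qHTS 6-point titration, ~60 µM downward; luminescence read.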
# MBNL1-CUG inh = blocks human MBNL1 binding to CUG repeat RNA. TR-FRET MBNL1-His/biotin-(CUG)12 binding, 665/545 ratio. Q9NR56. hit rate 0.036% among 280,000. Potency, µM (highest dose often 57.5 µM), for inactives: top-dose activity change, negative = inhibition, hits mostly inhibitors. AID 2675; active means well fitted inhibition curve with a large enough effect in the signal ratio, with a control signal flat, not every such curve was filed as active; inconclusive means small, poorly fitted or top-dose-only effect, or effect the other way, or a change in a side signal; inactive means no such curve, though single readings can be large or run the other way; the % refers to the signal ratio; further: potency means the concentration at half of the fitted maximal effect; on the % scale 0 is the no-effect control and ±100 the full control effect
#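 MBNL1-His + Biotin-(CUG)12, cpd titration 92 nM–58 uM; Tb anti-His Ab 0.055 ng/ul, SA-XL665 5 nM (final); 60 min RT; ratiometric 665/545 nm, Ex 340 nm; normalized to buffer and full-complex controls.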
# Mito fusion yeast = inhibitors of mitochondrial division or activators of mitochondrial fusion; S. cerevisiae fusion-defective mutant growth rescue, CellTiterGlo 48 h; Potency, µM (series often up to 46.1 µM), inactives show at the top dose growth rescue (activation), actives largely listed as activators; hit rate 0.23% among 320,000; AID 485298;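 further: potency means the concentration at half of the fitted maximal effect; % of control where 0% means no effect; nearly all actives have a fitted effect of over 45% in size; temperature-sensitive fusion mutants such as fzo1-1 at 37 °C on non-fermentable ethanol glycerol medium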
#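 Yeast fusion mutant, YPEG (non-fermentable carbon), compound, 48 h at 37C non-permissive; CellTiterGlo added, 10 min RT, luminescence read. Rescued growth = division inhibition.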
# Starred values were filed as active, the others as inactive; ? = inconclusive; . = not tested or not shown; [ ] = remark or other dose. Unless noted, the call rests on the fitted dose curve; in most records, active means well fitted curve in the direction sought with a large enough effect; inconclusive means small, poorly fitted or top-dose-only effect, or another doubt; inactive means no such curve, though single readings can be large; an effect the other way counts as inactive or inconclusive. Some of the compounds tested; the hit share may differ from the screen's.
molecule	Mito fusion yeast	VP16 counter	KCNH2 3.1 block	Rab9 promoter act	ELG1 DNA repair	Menin-MLL TR inh	MBNL1-CUG inh	RORgamma inh	NPC1 prom act	FLuc counter
O=C(CSCC(=O)NC1CC1)Nc1ccc2ccccc2c1	-3%	0%	-9	13%	?	3%	-10%	?	7%	-16%
C=C(C)Cn1c(SCC#N)nc2ccccc2c1=O	6%	-1%	4	0%	0%	14%	-7%	-12%	-1%	4%
O=C(COc1ccc(Br)cc1)N(Cc1ccccc1)c1ccccn1	?	-6%	-3	3%	-1%	7%	.	32%	1%	1%
CCc1ccc(N/C(N)=N/c2nc(CSc3ccccn3)cc(=O)[nH]2)cc1	-7%	-5%	-8	-20%	23µM*	-4%	-4%	-4%	-7%	-5%
NC(=O)C1CCN(C(=O)CSCc2ccccc2Cl)CC1	0%	13%	6	4%	24%	-12%	-3%	17%	8%	-7%
Cc1cc(C)c(C)c(S(=O)(=O)NCC(=O)N2CCCC2)c1C	-1%	6%	4	-2%	0%	-3%	-7%	?	-4%	8%
O=C1NC(Cc2c[nH]c3ccccc23)C(=O)N1CCOc1ccccc1 (stereo unspecified)	-3%	.	-7	-2%	-1%	9%	-3%	30%[0.365 µM]	-1%	0%
CCOC(=O)C(=O)Nc1cccc(C(=O)OCC)c1	-3%	-5%	14	-1%	0%	-5%	.	-20%	-1%	-9%
COc1ccc2[nH]c(C)c(C(=O)CN3CCN(C/C=C/c4ccccc4)CC3)c2c1	-3%	8%	.	-3%	0%	-9%	3%	5%	0%	0%
Cc1cc(C)nc(N/N=C/c2cccc([N+](=O)[O-])c2)n1	-4%	4%	-5	10%	13%	.	?	4%	1%	-19%
CC(C)Oc1cc(S(=O)(=O)N2CCCCC2)ccc1N	8%	-7%	4	-1%	-3%	-1%	-3%	18%	-6%	-2%
Nc1cc(=O)[nH]c(SCc2nc3ccccc3n2Cc2ccccc2)n1	0%	-3%	-1	4%	14%	-1%	10%	-5%	-6%	0%
C=CCn1c(CNC(=O)c2ccco2)nnc1SCC(=O)Nc1cccc(F)c1	6%	7%	5	-6%	14%	-7%	1%	16%	0%	0%
COC(=O)c1ccc(NC(=O)c2ccc(NC(=O)C3CCCO3)cc2)cc1 (stereo unspecified)	4%	28%	6	1%	-7%	1%	.	16%	18%	-16%
CC(Sc1nnc(Cc2cccs2)n1C1CCCCC1)C(N)=O (stereo unspecified)	2%	0%	-7	7%	-2%	2%	-11%	-3%	-6%	0%
COc1ccccc1NC(=O)c1nn(-c2ccc(OC(F)(F)F)cc2)ccc1=O	8%	2%	-10	1%	6%	-1%	?	20%	0%	2%
Cc1cc(OCC(=O)N2CCN(c3ccccn3)CC2)c(C)cc1Br	0%	1%	6	-2%	-7%	.	-7%	-9%	2%	0%
O=S(=O)(c1ccc(N2CCOCC2)c(Cl)c1)N1CCOCC1	2%	27%	0	-3%	2%	2%	-4%	?	-1%	-2%
CCc1cc2ccc(OC)cc2nc1SCC(=O)Nc1cc(C)on1	-1%	-27%	14	4%	23%	4%	-6%	0%	6%	0%
Cc1cc2cc(CCNC(=O)c3cccc([N+](=O)[O-])c3)c(=O)[nH]c2cc1C	1%	-3%	-21	-2%	23µM*	-17%	21%	33%	-5%	2%
CCn1ncc(N(C)N)c(Cl)c1=O	-1%	3%	24	-8%	5%	-24%	7%	23%	0%	6%
N#Cc1cnc(Nc2ccc(F)cc2)nc1N	-4%	-15%	5	?	?	.	-3%	26%	?	?
CCN1CCCC1CNC(=O)CS(=O)(=O)Cc1nc(-c2ccccc2C)oc1C (stereo unspecified)	13%	-5%	8	0%	?	10%	-18%	-33%	-2%	0%
CCN(C(=O)CSc1ncccc1C(=O)O)C1CCCCC1	-4%	-18%	3	-5%	20%	8%	-5%	19%	-9%	0%
COc1cc(OC)c(C2CC(=O)N3CN(c4ccccc4C)CSC3=C2C#N)cc1OC (stereo unspecified)	8%	-14%	.	-2%	-15%	-7%	6%	-41%	-4%	-18%

# Single values from the results shown:
# In VP16 counter, O=C(CSCC(=O)NC1CC1)Nc1ccc2ccccc2c1 is listed with 0%
# In RORgamma inh, COc1ccc2[nH]c(C)c(C(=O)CN3CCN(C/C=C/c4ccccc4)CC3)c2c1 is listed with 5%
# In NPC1 prom act, O=S(=O)(c1ccc(N2CCOCC2)c(Cl)c1)N1CCOCC1 is listed with -1%
# In FLuc counter, CCn1ncc(N(C)N)c(Cl)c1=O is listed with 6%
# In KCNH2 3.1 block, NC(=O)C1CCN(C(=O)CSCc2ccccc2Cl)CC1 is listed with 6
# In RORgamma inh, N#Cc1cnc(Nc2ccc(F)cc2)nc1N is listed with 26%
# In RORgamma inh, Cc1cc(OCC(=O)N2CCN(c3ccccn3)CC2)c(C)cc1Br is listed with -9%

# An excerpt of these results, with two lines to a compound.
# Fields: Mito fusion yeast, VP16 counter, KCNH2 3.1 block, Rab9 promoter act, ELG1 DNA repair, Menin-MLL TR inh, MBNL1-CUG inh, RORgamma inh, NPC1 prom act, FLuc counter
COc1ccccc1NC(=O)c1nn(-c2ccc(OC(F)(F)F)cc2)ccc1=O
 : 8%, 2%, -10, 1%, 6%, -1%, ?, 20%, 0%, 2%
COc1ccc2[nH]c(C)c(C(=O)CN3CCN(C/C=C/c4ccccc4)CC3)c2c1
 : -3%, 8%, ., -3%, 0%, -9%, 3%, 5%, 0%, 0%

# Three entries already listed, sorted by length of the SMILES, low to high:
molecule	Mito fusion yeast	VP16 counter	KCNH2 3.1 block	Rab9 promoter act	ELG1 DNA repair	Menin-MLL TR inh	MBNL1-CUG inh	RORgamma inh	NPC1 prom act	FLuc counter
CC(C)Oc1cc(S(=O)(=O)N2CCCCC2)ccc1N	8%	-7%	4	-1%	-3%	-1%	-3%	18%	-6%	-2%
Cc1cc(C)nc(N/N=C/c2cccc([N+](=O)[O-])c2)n1	-4%	4%	-5	10%	13%	.	?	4%	1%	-19%
COc1ccccc1NC(=O)c1nn(-c2ccc(OC(F)(F)F)cc2)ccc1=O	8%	2%	-10	1%	6%	-1%	?	20%	0%	2%
